Mtb MbtI inh – MbtI salicylate synthase inhibitors, primary screen, biochemical, fluorescence intensity. P9WFX0. purified MbtI enzyme, fluorescence intensity read-out. inhibition, %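 (about 17 µg/mL by stock and volumes)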. 100,000 compounds, 0.89% hits. AID 493033, 2011;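 active means above 50% in both replicates, above 80% if mildly self-fluorescent; inactive means the rest, strongly fluorescent compounds included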;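 further: 0% = mean of negative and 100% = mean of positive controls; one replicate is shown; some compounds called inactive have numbers as strong as hits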
Polio RdRp inh – poliovirus RdRp elongation inhibitors, primary screen, biochemical, fluorescence polarization, total intensity | poliovirus polymerase elongation; active compounds read low | % elongation, % (compound at 16.7 µg/mL) | 150,000 compounds, 0.66% hits | AID 588519, 2011; in the data active means % elongation below about 90%; further: some results filed as inactive read as strong as hits
Target sequence (P03300 1749-2209 limits assumed): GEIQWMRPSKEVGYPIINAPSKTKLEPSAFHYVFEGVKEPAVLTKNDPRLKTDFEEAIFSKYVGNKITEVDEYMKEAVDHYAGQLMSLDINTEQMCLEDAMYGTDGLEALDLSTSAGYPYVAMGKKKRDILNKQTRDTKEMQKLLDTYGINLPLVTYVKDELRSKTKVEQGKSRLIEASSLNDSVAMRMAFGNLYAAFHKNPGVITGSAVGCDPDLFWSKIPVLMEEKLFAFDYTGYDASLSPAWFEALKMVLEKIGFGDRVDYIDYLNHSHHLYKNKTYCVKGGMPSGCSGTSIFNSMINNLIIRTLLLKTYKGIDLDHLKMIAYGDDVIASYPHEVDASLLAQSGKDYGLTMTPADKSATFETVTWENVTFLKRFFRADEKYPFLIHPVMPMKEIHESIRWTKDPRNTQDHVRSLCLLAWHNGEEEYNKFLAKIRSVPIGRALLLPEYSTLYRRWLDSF
MenB inh – M. tuberculosis MenB inhibitors, primary screen, biochemical, absorbance | AID 540299, 2011 | inhibition, %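 (about 12 µg/mL by stock and volumes)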 | 100,000 compounds, 0.43% hits | MenB enzyme assay, absorbance read-out; some hits fall short of the stated cut;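 active means mean of two replicates above 30%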;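 further: 0% = no compound and 100% = wells with inactive enzyme; the first replicate is given; strong numbers were not always called active; inactives centre near -10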
Target sequence (P9WNP5 whole entry, looked up): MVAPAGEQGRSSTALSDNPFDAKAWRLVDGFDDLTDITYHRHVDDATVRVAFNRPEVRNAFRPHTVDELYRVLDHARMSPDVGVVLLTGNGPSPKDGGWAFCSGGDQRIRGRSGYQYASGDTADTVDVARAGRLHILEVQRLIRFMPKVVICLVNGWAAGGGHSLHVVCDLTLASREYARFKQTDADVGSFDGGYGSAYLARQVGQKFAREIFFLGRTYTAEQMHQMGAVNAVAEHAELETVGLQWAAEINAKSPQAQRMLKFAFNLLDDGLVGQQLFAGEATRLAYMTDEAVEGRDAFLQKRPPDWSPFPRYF
Polio RdRp inh intensity – second read-out of Polio RdRp inh, no call of its own (marks repeat the call); % elongation; measured here: total intensity read-out; formula for this scale not given here;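 total fluorescence in place of polarization; lower means less elongation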
* marks the source's active call; other numbers are inactive results; i = inactive; · = not tested or not shown.

canonical_smiles	Polio RdRp inh	Polio RdRp inh intensity	Mtb MbtI inh	MenB inh
CC(NC(=O)c1ccccc1)C(=O)OCn1nnc2ccccc2c1=O (configuration not stated)	104	101	21	3
O=C(Nc1ncn[nH]1)c1ccccc1CCc1ccccc1	103	104	-17	-12
O=C(OCC1CCNCC1)c1ccc2c(c1)OCO2	103	101	36	3
CCCCCN=Cc1sc2ccc(OCC)cc2c1O	101	99	25	-226
c1ccc(CN2C3=NCCCN3c3ccccc32)cc1	100	104	2	8
CCOC(=O)N1CCC(NC(=O)Cn2c(=O)oc3ccccc32)CC1	100	102	-15	-1
O=C(O)CSc1ccccc1	102	106	·	-11
CC(C)CNS(=O)(=O)c1ccc(CCC(=O)NCc2ccncc2)cc1	102	101	-23	4
CCOc1cc(C(=O)n2cc(C)cn2)cc(OCC)c1OCC	102	105	-9	-15
O=C(O)c1[nH]c2ccccc2c1CNCc1ccccc1	104	106	45	-10
O=C(CCS(=O)(=O)c1ccc(Br)s1)Nc1cccc(C(F)(F)F)c1	102	104	5	0
COc1cccc(C2C3(C#N)C(N)=NC(OC)(OC)C23C#N)c1 (configuration not stated)	102	107	-6	12

canonical_smiles	Polio RdRp inh	Polio RdRp inh intensity	Mtb MbtI inh	MenB inh
O=C(CSc1nnc(-c2ccoc2)c(-c2ccoc2)n1)c1ccc(N2CCCC2=O)cc1	97	94	21	25
Cc1c(C(=O)NCCC(C)C)sc2ncnc(N3CCOCC3)c12	103	106	-6	-14
Cc1ccc2[nH]c(C)c(CC(=O)O)c2c1	98	104	47	-23
CCCNS(=O)(=O)c1cc2c3c(c1)CCC(=O)N3CCC2	101	109	13	-13
CCN(C(=O)CSc1ccc(Cl)cc1)C1CCCCC1	99	100	1	·
O=C(O)CS(=O)(=O)Cc1ccc(Cl)s1	99	108	5	-6
Cc1cc(C)c(C(=O)NCCN2CCCCC2)c(C)c1	104	103	-10	4
COc1ccc(CNC(=O)CSc2ncnc3nc[nH]c23)cc1	101	104	2	16
O=C(COc1ccc2oc3ccccc3c2c1)NCc1ccc2c(c1)OCO2	105	106	111	-12
O=S(=O)(c1ccc(Br)cc1)N1CCCc2ccccc21	103	100	·	7
O=S(=O)(c1ccc(Cl)cc1)n1ccc(C(F)(F)F)n1	100	123	-2	-18
CCCn1c(=O)n(CC(=O)O)c2ccccc21	103	109	-12	-27

A few values from the results shown:
O=C(O)CS(=O)(=O)Cc1ccc(Cl)s1 @ MenB inh: -6
CCCNS(=O)(=O)c1cc2c3c(c1)CCC(=O)N3CCC2 @ Mtb MbtI inh: 13
O=C(CSc1nnc(-c2ccoc2)c(-c2ccoc2)n1)c1ccc(N2CCCC2=O)cc1 @ Mtb MbtI inh: 21
O=S(=O)(c1ccc(Br)cc1)N1CCCc2ccccc21 @ Polio RdRp inh: 103
O=S(=O)(c1ccc(Cl)cc1)n1ccc(C(F)(F)F)n1 @ Mtb MbtI inh: -2

Going on with the list:
canonical_smiles	Polio RdRp inh	Polio RdRp inh intensity	Mtb MbtI inh	MenB inh
O=C(COC(=O)c1ccco1)c1ccc(OC(=O)c2ccccc2)cc1	101	99	9	-8
CCOc1ccc(S(=O)(=O)NC(=O)N(CC)Cc2cc3ccccc3o2)cc1	104	99	-14	11
c1ccc2sc3c(-c4ccncc4)sc4ccccc4[nH]c-3nc2c1	100	104	79	-48
CCCn1c2ccccc2c2cnn(CC(=O)NCCCN3CCCC(C)C3)c(=O)c21 (configuration not stated)	104	103	102	-13
CCn1c(=O)cc(OCC(=O)NC2CCCC(C)C2C)c2ccccc21 (configuration not stated)	99	104	2	-9
CC(C)CNc1nc2c(N)ncnc2n1[C@H]1O[C@@H](CO)[C@H](O)[C@@H]1O	104	96	9	11
FC(F)(F)c1nc2c(cnn2Cc2ccccc2)c2nnnn12	103	107	1	-13
CCN(CCN(C)C)C(=O)c1cc2c(s1)-c1c(C)cccc1OC2	100	102	118	-4
CCSc1nnnn1-c1ccccc1	98	101	-8	-5
O=C(c1ccccc1)c1ccsc1	100	102	2	12
O=C(O)C1Cc2ccccc2CN1C(=O)CSc1nnc(-c2ccncc2)o1 (configuration not stated)	102	105	-5	-3
CC(C)(C)OC(=O)c1c(F)c(F)c(F)c(F)c1F	101	102	-18	-23

canonical_smiles	Polio RdRp inh	Polio RdRp inh intensity	Mtb MbtI inh	MenB inh
Nc1c2c(nc3cccc(F)c13)OCCC2	102	106	-12	-3
O=C(C1CCCO1)N1CCN(Cc2ccccc2F)CC1 (configuration not stated)	103	102	-14	2
O=C(O)C1CCC(c2ccccc2)CC1 (configuration not stated)	101	102	-2	1
COC(=O)c1cn(-c2ccccc2)nc1C(=O)OC	104	106	-1	-43
Cc1ccc(C(c2nnnn2C2CCCC2)N(C)C2CCCCC2)cc1 (configuration not stated)	105	101	-10	-10
CCOc1ccc(-c2nc(=S)[nH][nH]2)cc1	102	104	·	1
CC(NC(=O)NCC1CCCO1)(C(F)(F)F)C(F)(F)F (configuration not stated)	100	100	2	9
Cc1ccc2c(c1)NC(=O)C(CC(=O)NCCN1CCN(c3cc(Cl)ccc3C)CC1)O2 (configuration not stated)	104	104	20	3
CCOC(=O)N1CCN(C2CCN(CC)CC2)CC1	100	100	-7	-5
COc1ccc2nc(C)cc(Oc3ccc4c(c3)OCO4)c2c1	100	98	27	1
N#Cc1nc(Cc2ccccc2)oc1NCc1ccco1	100	104	0	7
CCOc1ccc(S(=O)(=O)NCCC(=O)N=c2sc3ccccc3n2C)cc1	105	102	-9	-26

Five entries from above, set out differently.
Results follow in this order: Polio RdRp inh	Polio RdRp inh intensity	Mtb MbtI inh	MenB inh
O=C(C1CCCO1)N1CCN(Cc2ccccc2F)CC1 (configuration not stated)
    103	102	-14	2
O=C(O)C1CCC(c2ccccc2)CC1 (configuration not stated)
    101	102	-2	1
COC(=O)c1cn(-c2ccccc2)nc1C(=O)OC
    104	106	-1	-43
Cc1ccc(C(c2nnnn2C2CCCC2)N(C)C2CCCCC2)cc1 (configuration not stated)
    105	101	-10	-10
CCOc1ccc(-c2nc(=S)[nH][nH]2)cc1
    102	104	·	1

Continued.
canonical_smiles	Polio RdRp inh	Polio RdRp inh intensity	Mtb MbtI inh	MenB inh
CCOC(=O)C1C(=O)CC(=O)C(C(=O)OCC)C1c1ccc(OC)cc1 (configuration not stated)	107	111	·	-24
COc1cc2ccc(=O)oc2cc1OC	107	109	102	6
CCOc1cccc(C(=O)Nc2ccc(Cl)cn2)c1	102	99	-9	-27
CCN(C(=O)c1ccc(-n2cnnn2)cc1)C12CC3CC(CC(C3)C1)C2	109	110	-10	-7
C=CCC1C=C(C=C)CC(CC=C)N1 (configuration not stated)	105	111	2	-39
COc1ccc(-c2nnn(CC(=O)Nc3sc4c(c3C#N)CCCC4)n2)cc1	103	102	1	-33
N#CC1(NC(=O)COC(=O)c2nccnc2N)CCCCC1	104	116	102	2
COc1ccc(S(=O)(=O)CC(C)(O)CS(=O)(=O)c2ccc(OC)cc2)cc1	95	104	-3	-7
NC(=O)CN1CCN(c2ccccn2)CC1	103	106	-18	-10
Cc1cc(N)n(C)c(=O)c1	85	221	105	-85
CCCCN(C)C(=O)Cn1cc2c(n1)CCCCC2	104	105	-7	5
O=C(CN1CCN(C(=O)c2ccccc2)CC1)NCC(F)(F)F	109	106	1	5

canonical_smiles	Polio RdRp inh	Polio RdRp inh intensity	Mtb MbtI inh	MenB inh
CCn1cnc2c1c(=O)n(CC(=O)O)c(=O)n2Cc1ccccc1	110	104	19	7
CC(C)c1cc(C(=O)O)nc2ncnn12	102	101	14	-14
O=C(COc1ncnc2sccc12)NCc1ccccc1	107	110	-36	7
CSC1(N2CCc3ccccc3C2)NN=C(C)C(=O)N1 (configuration not stated)	102	104	13	-27
Cc1ccc(Nc2cc(C)nc(-c3ccccc3O)n2)cc1	103	102	11	-27
O=C1NN=C2C3CC(CC12)C1=NNC(=O)C1C3 (configuration not stated)	98	103	-1	18
CC1CCCCN1S(=O)(=O)c1ccc(C(=O)Nc2ccc3c(c2)C(=O)NC3=O)cc1 (configuration not stated)	101	102	105	-10
c1ccc(Nc2ncnc3cc(-c4ccccc4)sc23)cc1	102	105	-3	3
Cc1cc(=O)n2[nH]cc(C(=O)O)c2n1	101	104	111	-2
CC1(C)C2CC=C(/C=N/NC(=O)c3ccc(O)cc3)C1C2 (configuration not stated)	107	100	29	9
NS(=O)(=O)c1ccc(-c2ccc(C3Nc4ccccc4-c4nc5ccccc5n43)o2)cc1 (configuration not stated)	99	99	93	-25
CN(C)c1ccc(-c2nc(-c3cccc(I)c3)cc(=O)o2)cc1	127	152	-4	-2

canonical_smiles	Polio RdRp inh	Polio RdRp inh intensity	Mtb MbtI inh	MenB inh
CN(C)c1ccc(C(=O)NCc2ccc(S(N)(=O)=O)cc2)cc1	101	101	14	-20
CC(C)c1ccc(OCCCN2CCCC2)cc1	102	101	17	-9
CCOc1ccc(N=C(N)N=C(N)N)cc1	103	103	-4	-9
CC(C)OC(=O)c1cc2c(ccn2C)n1CC(=O)N(Cc1ccccc1)c1ccccc1	104	103	90	-95
O=C(NC(=S)Nc1nncs1)c1ccccc1	102	105	17	-15
Cc1ccc(C(O)C(=O)c2ccccc2)o1 (configuration not stated)	102	103	-1	-7
CNC(=O)COC(=O)c1ccccc1C(=O)c1ccccc1	101	97	8	-2
COC(=O)C1CCN(C(=O)CSc2nnc3n(-c4c(C)cccc4C)c(=O)c4ccccc4n23)CC1	104	109	-1	-28
S=C1SCN(Cc2ccccc2)CN1Cc1ccccc1	100	103	-14	-32
Cn1ccsc1=NC(=O)/C=C/c1ccc(S(=O)(=O)N2CCCCCC2)cc1	112	108	-1	-4
CCC(CO)NC(=O)c1ccc(N)cc1 (configuration not stated)	101	96	·	-7
COc1cccc(N=Cc2ccc(O)cc2)c1	103	102	·	-4

canonical_smiles	Polio RdRp inh	Polio RdRp inh intensity	Mtb MbtI inh	MenB inh
Cc1nn(C(=O)c2ccccc2)cc1-c1nsc(Nc2ccccc2)n1	100	108	81	-17
O=C1/C(=C\c2ccc(N3CCOCC3)cc2)N2CCC1CC2	103	103	-9	-20
CCN(C(=O)CC(C)C)c1nnc(-c2ccccc2C)s1	97	94	69	-20
Cc1ccccc1CN1CCCN(Cc2ccccc2)S1(=O)=O	·	·	2	-33
CC(=O)Nc1c(Cl)n(C(C)=O)c2ccccc12	99	104	-10	-29
CCn1c2ccccc2c2cc(/C=C(\C#N)S(=O)(=O)c3ccccc3)ccc21	99	104	-25	-15
CS(=O)(=O)Nc1cccc(C(=O)O)c1	100	106	-74	8
FC(F)(F)c1ccc(CSc2ncnc3c2oc2ccccc23)cc1	98	102	-4	7
O=c1[nH]c(=O)n(-c2ccccc2)[nH]1	94	109	3	-3
Cc1oc2c(c1C(=O)NCc1ccccn1)C(=O)c1ccccc1C2=O	99	102	0	3
O=C(O)Sc1nnc(CCCO)n1-c1ccccc1	90	100	·	1
Cc1nc(C)c(C(=O)NCCc2nc3ccccc3[nH]2)s1	100	105	-8	-14

canonical_smiles	Polio RdRp inh	Polio RdRp inh intensity	Mtb MbtI inh	MenB inh
Cc1ccc(-c2nc(C#N)c(NC3CC3)o2)cc1	103	107	95	·
COc1cc(C#N)ccc1OC(=O)C(CCSC)N1C(=O)c2ccccc2C1=O (configuration not stated)	101	96	-4	-20
CN1CCCC1c1ccc(N)nc1 (configuration not stated)	102	103	65	-7
CNC(=O)c1cccc(S(=O)(=O)N(C)C)c1	100	105	-27	-22
CCNS(=O)(=O)c1ccc(OC)c(C(C)(C)C)c1	100	102	2	-10
CC(C)N(CC(=O)N1c2ccccc2CC1C)Cc1ccccc1 (configuration not stated)	102	97	-8	5
CCN(CC)Cc1c(O)ccc2c(=O)c(-c3ccccc3OC)coc12	105	103	117	-5
Cc1cccc(Nc2nnc(SCC#N)s2)c1	111	111	-5	-20
Cc1ccc(-n2c(SCc3cccc(C(F)(F)F)c3)nnc2-c2ccncc2)cc1	98	102	·	5
Cc1ccc(NC(=O)NC(=O)CN2C(=O)C3CC=CCC3C2=O)c(C)c1 (configuration not stated)	103	102	-8	-21
Cn1nnnc1SCC(=O)N1CCCC1c1ccc2c(c1)OCCCO2 (configuration not stated)	101	101	-5	9
O=C(Cn1nc(-c2ccccc2)ccc1=O)Nc1ccc(F)cc1	102	104	-23	-24

canonical_smiles	Polio RdRp inh	Polio RdRp inh intensity	Mtb MbtI inh	MenB inh
CCC(C)C(=O)Nc1ccc(-c2nc3ccccc3o2)cc1 (configuration not stated)	100	102	i	-14
CC1Cc2ccccc2N1C(=O)CSc1nnc2c(n1)[nH]c1ccccc12 (configuration not stated)	102	103	-21	-22
Cc1cc2c(C)cc(=O)oc2c2c1NCCC2	98	102	i	-77
N#CCCn1nnc2ccccc21	104	107	-2	-32
COc1ccc(C(O)c2nnc(-c3ccccc3)o2)cc1OC (configuration not stated)	103	104	6	-36
CCN(CC)CC(=O)O	100	102	-2	-40
O=C1OC(/C=C/c2ccccc2)=NC/1=C/c1ccco1	103	106	16	-53
CC1(O)CCOCC1NC(Cc1cc2ccccc2[nH]1)C(=O)O (configuration not stated)	99	111	·	-23
N#Cc1ccc(Cn2cccn2)cc1	99	105	-8	-14
Cc1cc(C)n2cc(CSC3CCCC3)nc2n1	104	108	96	·
CC1(C)C(=O)C2(C(=O)NCCc3ccccc3)CCC1C2 (configuration not stated)	102	103	-6	-19
CC(=O)NC1C(=O)N=C(SCc2ccccc2)NC1=O (configuration not stated)	109	106	·	3
Cc1cc(=O)[nH]c(SCSc2nc(C)cc(=O)[nH]2)n1	102	102	0	-25
